# GLA inh pH 4.5 = qHTS Assay for Inhibitors of Human alpha-Galactosidase at pH 4.5. activity change, negative = inhibition, % at 105 µM. AID 1467, 2008. 230,000 tested, under 10 active. purified enzyme, 4-MU-alpha-Gal fluorescence, pH 4.5; inconclusive = small, poorly fitted or top-dose-only inhibition, or a rising curve; inactive = flat fitted curve, though single readings scatter; no compound was filed as active;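 also: 0% = full activity with enzyme and -100% = basal without enzyme; dose as in the result columns while the protocol names 77 µM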
# Target sequence (P06280 whole entry, looked up): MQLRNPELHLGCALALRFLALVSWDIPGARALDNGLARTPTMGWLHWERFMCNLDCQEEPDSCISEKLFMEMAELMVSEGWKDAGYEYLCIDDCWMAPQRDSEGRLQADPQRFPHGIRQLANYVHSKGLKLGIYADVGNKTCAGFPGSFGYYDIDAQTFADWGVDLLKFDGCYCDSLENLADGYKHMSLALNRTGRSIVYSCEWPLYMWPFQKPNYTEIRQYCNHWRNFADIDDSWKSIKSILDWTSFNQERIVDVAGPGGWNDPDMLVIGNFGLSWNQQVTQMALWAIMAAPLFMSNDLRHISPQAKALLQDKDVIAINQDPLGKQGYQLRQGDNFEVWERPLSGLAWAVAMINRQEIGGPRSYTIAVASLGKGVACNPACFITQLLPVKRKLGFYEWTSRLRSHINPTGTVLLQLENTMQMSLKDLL
# Rango complex inh = qHTS Assay for Inhibitors of Rango (Ran-regulated importin-beta cargo) - Importin beta complex formation | Importin subunit beta-1 (Homo sapiens), Q14974 | Rango CFP/YFP FRET sensor + importin beta, 45 min | Potency, µM (series often up to 92.2 µM), for the others: at the top dose inhibition of complex formation | 340,000 tested, 0.031% active | AID 540263, 2011; active = rising FRET ratio curve, often small or poorly fitted; inconclusive = mostly compound fluorescence or quenching in the first reads; inactive = flat curves in all reads;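 also: potency is read from the fitted curve at half-maximal effect; 0% = DMSO wells and 100% = buffer wells lacking importin beta; nearly all actives have a fitted effect of over 15% in size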
#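 FRET biosensor (snurportin 1 IBB flanked by EYFP and cerulean), 50 nM, with compound 5 min, then 0.125 microM importin beta in PBS, 1 mM DTT, 0.02% Tween-20, 0.1% BSA. CFP/YFP ratio read after 45 min at room temperature; pre-read flags interference.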
# miR-21 reporter = qHTS Assay for Modulators of miRNAs and/orActivators of miR-21 | HeLa miR-21 FLuc reporter, luciferase, 48 h | Potency, µM (titrated, usually from 38.3 µM), without a hit: at the top dose reporter change, positive = more light | 340,000 tested, under 10 active | AID 2288, 2010; active = well fitted rising curve with a large enough effect; inconclusive = small, poorly fitted or top-dose-only effect; inactive = no such curve, though single readings can be large or run the other way;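 also: % of control where 0% means no effect; miR-21 action dims this reporter so a rising signal means less miR-21 action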
#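 Compounds were titrated across several concentrations (up to approximately 40 uM) and incubated 48 hours with HeLa miR-21-FLuc reporter cells (miR-21 target sequence downstream of FLuc, endogenous miR-21). Readout was firefly luciferase luminescence after lytic detection reagent.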
# Rango release inh = qHTS Assay for Inhibitors of RanGTP induced Rango (Ran-regulated importin-beta cargo) - Importin beta complex dissociation; Snurportin-1 (Homo sapiens) + GTP-binding nuclear protein Ran (Homo sapiens) + Importin …; Biochemical FRET Rango-importin beta, RanGTP-induced dissociation; Potency, µM (highest dose often 46.1 µM), for inactives: at the highest dose activity change, negative = inhibition; 340,000 tested, 0.071% active; AID 540253, 2011; active means falling FRET ratio curve, often poorly fitted, with flat reads before Ran was added; inconclusive means other falling curves, or compound fluorescence or quenching; inactive means flat or rising ratio curve;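 also: potency is read from the fitted curve at half-maximal effect; % of control where 0% means no effect; nearly all actives have a fitted effect of over 45% in size; -100% = wells without RanGTP and RCC1; the record marks most hits as doubtful in a second field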
#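 Rango FRET biosensor (snurportin-1 IBB flanked by N-terminal EYFP and C-terminal CFP10) at 0.1 uM, with 0.25 uM importin beta in PBS, 1mM DTT, 0.02% Tween-20, 0.1% BSA. 0.6 uM Ran, 2mM GTP and 0.2 uM RCC1 were then added for 45 min at room temperature. Inhibition read as loss of FRET rise.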
# * marks the source's active call; other numbers are inactive results; ? = inconclusive; / = no result given; [ ] = dose if it differs, or a comment. These rows are one share of the data; the hit share may differ from the screen's.
SMILES,GLA inh pH 4.5,Rango complex inh,miR-21 reporter,Rango release inh
CC1(C)CC(=O)c2cnc(N)nc2C1,4,0.5%,-9%,-2%
Cc1ccccc1CN1CCC(N2CCC(C(=O)NCC3CCCO3)CC2)CC1 (stereo not drawn),/,0.5%,-1%,9%
O=C(NCc1ccccc1)C1=C[C@@H](c2csc3ccccc23)C[C@@H](OCCCCO)O1,-5,1.6%,?,-11%
O=C(ONc1ccc(N=NC(=O)c2ccccc2O)cc1)c1ccccc1,-1,2.8%,-10%,2%
CCOC(=O)c1cc(-c2ccccc2C)nn1CC1CC(c2cccnc2)=NO1 (stereo not drawn),/,5.5%,/,8%
O=C1CCC([N+](=O)[O-])C(c2ccc(Br)cc2)N1 (stereo not drawn),-2,-1.9%,0%,5%
COc1ccc(C(=O)NCCn2cc(SCC(=O)N3CCOCC3)c3ccccc32)cc1,4,-0.7%,-3%,3%
CC(=O)Nc1ccc(NC(=O)CSc2nnc(-c3ccccc3)n2Cc2ccc3c(c2)OCO3)cc1,7,3.7%,-10%,-8%
COc1ccccc1CN(C)C(=O)CN1CCN(C(=O)c2cccs2)CC1,/,-0.2%,/,1%
COc1ccc(NC(=O)c2ccc(OC)c(S(=O)(=O)N3CCCCC3C)c2)cn1 (stereo not drawn),/,-1.8%,/,-18%
CCOC(=O)C1CN(S(=O)(=O)c2ccccc2)C1,-2,0.4%,1%,12%
CC(=O)c1cc(Cl)ccc1OC(=O)c1ccco1,-7,0.5%,-2%,-5%
N#Cc1nc(COc2ccccc2)oc1N1CCCCCC1,-11,-0.2%,-46%,31%
N#C/C(=C\N1CCOCC1)C(N)=O,2,-0.6%,-2%,-1%
Nc1cc(-c2ccccc2)n2c(n1)nc1ccccc12,3,4.5%,-11%,0%
COc1ccc(C(CC(=O)O)NC(=O)C2CCCCC2)cc1 (stereo not drawn),1,8.2%,-3%,-22%
FC(F)(F)c1cccc(N2CCN(Cc3cccnc3)CC2)c1,4,-3.4%,1%,21%
Nc1cc(Cl)ccc1C(=O)OCC(=O)NC1CCCCCCC1,/,-0.2%,/,6%
Clc1ccc(Nc2ccccc2)nn1,1,-0.4%,-2%,-8%
CN(C(=O)COC(=O)c1ccc(C(C)(C)C)cc1)C1CCS(=O)(=O)C1 (stereo not drawn),/,-2.7%,/,7%
N#Cc1ccc(OCCN2CCc3ccccc3C2)cc1,/,-3.9%,/,-6%
Cn1c(C=O)c(-c2ccc3c(c2)OCCO3)c2ccccc21,/,?,/,-4%
Cc1cccc(OCCCC(=O)Nc2ccc(S(=O)(=O)N3CCCC3)cc2)c1,-16,-2.3%,11%,5%
OC(COc1ccc(F)cc1)CN1CCN(c2ccccc2F)CC1 (stereo not drawn),/,1.2%,-6%,-14%
CCCc1cc(C(=O)Nc2cccnc2)no1,-4,-3.4%,-39%,-1%
OC(COc1ccccc1)CN1CCN(Cc2ccc3c(c2)OCO3)CC1 (stereo not drawn),-3,0.2%,-9%,-14%
CC(=O)NCCc1ccc(S(=O)(=O)N2CCOCC2)cc1,0,-1.1%,1%,8%
COc1cc(/C=C2\SC(=Nc3ccc(F)cc3)N(c3ccc(F)cc3)C2=O)ccc1OCC(=O)O,-17,/,1%,/
O=S(=O)(Nc1cccc2ncccc12)c1cccc(C(F)(F)F)c1,/,4.5%,/,-4%
CCOC(=O)CNC(=O)CSc1cc(C)nc2ccc(OC)cc12,5,4.0%,-52%,0%

# Four entries from above, reformatted:
CCCc1cc(C(=O)Nc2cccnc2)no1
  GLA inh pH 4.5 = -4	Rango complex inh = -3.4%	miR-21 reporter = -39%	Rango release inh = -1%
OC(COc1ccccc1)CN1CCN(Cc2ccc3c(c2)OCO3)CC1 (stereo not drawn)
  GLA inh pH 4.5 = -3	Rango complex inh = 0.2%	miR-21 reporter = -9%	Rango release inh = -14%
CC(=O)NCCc1ccc(S(=O)(=O)N2CCOCC2)cc1
  GLA inh pH 4.5 = 0	Rango complex inh = -1.1%	miR-21 reporter = 1%	Rango release inh = 8%
COc1cc(/C=C2\SC(=Nc3ccc(F)cc3)N(c3ccc(F)cc3)C2=O)ccc1OCC(=O)O
  GLA inh pH 4.5 = -17	Rango complex inh = /	miR-21 reporter = 1%	Rango release inh = /

# Next section:
SMILES,GLA inh pH 4.5,Rango complex inh,miR-21 reporter,Rango release inh
COc1ccc(S(=O)(=O)N2CCSC2c2ccc(OC)c(OC)c2)cc1 (stereo not drawn),-8,-3.3%,-10%,17%
CC1CCCN(CCCNC(=O)c2cc3c(Cl)nc4ccccc4c3s2)C1 (stereo not drawn),-12[21.1 µM],-0.2%,?,0%
O=C(Nc1ccc2cccnc2c1)c1ccc(Br)cc1,/,-0.1%,-43%,-4%
Cc1cc(Cl)ccc1NC(=O)Nc1c(C)n(-c2ccccc2)c(=O)n1C,2,?,-6%,10%
CC1(C)CNC(=O)c2sc(N3CCCCC3)nc2C1,3,1.1%,-40%,-3%
O=C1N=C(N2C=CC(=C3C=CNC=C3)C=C2)/C(=C/N=NC(=O)c2ccccc2O)S1,/,?,16%,-17%
C#CCOCCOCCOCCNc1nc(N2CCN(C(=O)Cn3cc(CCCCN)nn3)CC2)nc(N2CCN(C(=O)Cn3cc(CCCN=C(N)N)nn3)CC2)n1,/,3.7%,/,0%
C=CCN(C(=O)c1csnn1)C(C(=O)NC1CCCCC1)c1ccc(C)cc1 (stereo not drawn),/,0.6%,-1%,19%
Cc1c(N=C2N=C(NC(=O)c3cccs3)c3ccccc32)c(=O)n(-c2ccccc2)n1C,-6,?,-56%,?
CN1CCS/C1=C/C=C1/SC(=S)N(Cc2ccccc2)C1=O,1,?,-29%,-8%
COc1ccc(N2CCN(C(=O)CCCNC(=O)Cn3cnc4sc(C)c(C)c4c3=O)CC2)cc1,/,2.3%,6%,-3%
CC(C)(C)C(=O)Nc1c2c(nn1-c1cccc(Cl)c1)CS(=O)(=O)C2,/,-2.0%,-3%,2%
CCCCOCCCNC(=O)Cc1cccs1,7,-1.4%,1%,2%
COc1ccc(NC(=O)COC(=O)c2cccc(S(=O)(=O)N3CCCCC3)c2)c(OC)c1,/,-4.5%,/,-9%
O=C(CN1CCN(S(=O)(=O)c2ccccc2)CC1)Nc1ccc(Cl)c([N+](=O)[O-])c1,/,0.5%,/,-8%
N/C(=N\S(=O)(=O)c1cc(C(F)(F)F)cc(C(F)(F)F)c1)c1cccs1,-2,0.0%,8%,14%
CCCCn1c(N)c(N(CC(C)C)C(=O)C2CCN(S(=O)(=O)c3ccc(C)c(C)c3)CC2)c(=O)[nH]c1=O,/,-0.4%,0%,-7%
O=C(COc1ccc(-c2nnco2)cc1)N1CCN(S(=O)(=O)c2ccccc2)CC1,0,6.0%,-6%,8%
C[C@H](CO)N1C[C@H](C)[C@@H](CN(C)CC2CCCCC2)Oc2c(NS(=O)(=O)c3ccc(F)cc3)cccc2C1=O,/,-1.2%,/,2%
COc1cc(CNCCO)cc(Br)c1OCc1cccs1,?,-1.5%,2%,8%
COc1ccc(Cl)cc1N(CC(=O)N/N=C/c1ccc(OC(C)C)cc1)S(=O)(=O)c1ccc(C)c([N+](=O)[O-])c1,-5,-0.6%,-9%,?
O=C(N/N=C/c1nn(-c2ccccc2)cc1-c1ccccc1)c1ccncc1,4,8.1%,0%,3%
COc1ccc(OC)c(C2/C(=C(\O)c3ccc(OC)c(Cl)c3)C(=O)C(=O)N2CCN(C)C)c1 (stereo not drawn),-2,-2.1%,-3%,10%
CCNS(=O)(=O)c1ccc(Br)c(OC)c1,-11,0.7%,-10%,-17%
COc1ccc(N2CCN(C(=O)Cn3cnc4sc(C)c(S(=O)(=O)N5CCOCC5)c4c3=O)CC2)cc1,/,-1.8%,3%,0%
CN1C(=O)C(=O)N(c2cccc(C(F)(F)F)c2)C1=O,/,4.5%,/,10%
Cc1cccc(C(=O)O/N=C/c2c(Cl)n(C)c3ccccc23)c1,-13,3.9%,-6%,2%
O=C(N/N=C\c1cccnc1)c1cc(-c2ccc(Cl)s2)[nH]n1,0,-3.0%,-2%,-6%
COc1ccc(-c2nnc(SCC(=O)N(C)C3CCS(=O)(=O)C3)n2N)cc1OC (stereo not drawn),-2,-0.9%,-1%,7%
O=C1C(=O)N(CCCn2ccnc2)C(c2ccc([N+](=O)[O-])cc2)/C1=C(\O)c1ccc2c(c1)OCCO2 (stereo not drawn),/,-3.9%,/,6%
O=S(=O)(NCC(Nc1ccc(Cl)cc1)c1ccccc1)c1ccccc1 (stereo not drawn),-3,-1.3%,?,1%
Cc1[nH]c2ccccc2c1/C=N/NC(=O)c1cccc(S(=O)(=O)Nc2ccccc2Cl)c1,-6,0.7%,-5%,-4%
CCOC(=O)N1CCC(N2CCN(c3cc(C)ccc3C)CC2)CC1,-3,-1.4%,15%,6%
Cn1c(=O)c2cc(S(=O)(=O)N3CCOCC3)ccc2n(C)c1=O,7,0.0%,8%,-5%
CC1(C)CC(=O)C2=C(C1)N(c1ccccc1C#N)C(N)=C(C#N)C2c1cccs1 (stereo not drawn),-3,-0.2%,-14%,-4%
CCCNc1nc(C)cc(-c2cc(C(=O)NCc3ccccc3)on2)n1,4,0.3%,10%,1%
CCOC(=O)c1cc2c(ccn2C)n1CC(=O)N(Cc1ccccc1)c1ccccc1,-5,3.7%,11%,-20%
Cc1cc(C)nc(NS(=O)(=O)c2ccc(NC(=O)c3ccc(S(=O)(=O)N4CC(C)OC(C)C4)cc3)cc2)n1 (stereo not drawn),12,-1.1%,-5%,0%
CCOc1ccccc1C(=O)NCC(=O)OCc1c(C)noc1C,3,3.9%,24%,-1%
Cc1cccc(C)c1OCC(=O)NNC(=S)NC(=O)C1CC1,/,-0.4%,21%,4%

# Sorted by SMILES length (ascending): part of the list above
SMILES,GLA inh pH 4.5,Rango complex inh,miR-21 reporter,Rango release inh
CCOc1ccccc1C(=O)NCC(=O)OCc1c(C)noc1C,3,3.9%,24%,-1%
CCOC(=O)N1CCC(N2CCN(c3cc(C)ccc3C)CC2)CC1,-3,-1.4%,15%,6%
O=S(=O)(NCC(Nc1ccc(Cl)cc1)c1ccccc1)c1ccccc1 (stereo not drawn),-3,-1.3%,?,1%

# Continuation:
SMILES,GLA inh pH 4.5,Rango complex inh,miR-21 reporter,Rango release inh
CC(=O)N/N=C/c1cc([N+](=O)[O-])ccc1OCCOc1ccccc1,-15,-3.5%,-12%,-16%
Cc1cc(NC(=O)c2ccc3[nH]c(C)c(C)c3c2)ccn1,/,-2.9%,6%,21%
O=C1N/C(=N\N=C\c2cccnc2)SC1Cc1ccc(SC(F)F)cc1 (stereo not drawn),-12,8.5%,3%,-9%
Cc1ccc(SCc2c(C(=O)N/N=C/c3ccc4c(c3)OCO4)nnn2-c2nonc2N)cc1,/,0.4%,-4%,-8%
Cc1ccc(OCCn2cnc3cc([N+](=O)[O-])ccc3c2=O)cc1,3,-0.2%,0%,-20%
O=C(NCC(=O)N1CCN(Cc2ccccc2)CC1)c1cccs1,/,-7.9%,/,6%
O=C(O)CN1CCN(c2ncc(C(F)(F)F)cc2Cl)CC1,3,-1.9%,0%,16%
COc1ccc(-c2nsc3c(SCc4ccccc4)ncnc23)cc1,12,2.2%,-19%,-13%
Cc1cc(Cl)ccc1NC(=S)N1CCN(Cc2ccccc2)CC1,-4,0.4%,-2%,-7%
COC(=O)c1ccc(OCC(=O)NC(C)(C)C)cc1,-7,-3.4%,-25%,-6%
COc1ccc(NS(=O)(=O)CC(C)C)c(OC)c1,-12,4.5%,0%,1%

# Screening data deposited in PubChem by National Center for Advancing Translational Sciences (NCATS).
